Screens (PubChem)
Biofilm kill mix: mixtures killing C. albicans biofilm | AID 1242 | C. albicans biofilm persisters + clotrimazole, fluorescence viability; primary screen in compound mixtures of four per well | actives 0.02% (n = 120,000) | inhibition, % at 7.6 µM;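 active = inhibition above 30.3% in the primary screen of four-compound pools, then above 30% when the compound was retested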;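 note: compounds exposed to preformed 24 h biofilms for 48 h; the number belongs to the whole pool; some results filed as inactive read as strong as hits; inactives centre near 12; 0% = biofilm with clotrimazole alone and 100% = kill control; retested singly at about 60 µM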
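Test system: C. albicans CAF4-2 wild-type biofilms; buffer or medium: RPMI/MOPS medium, pH 7.0; schedule: 24 h biofilm formation, then 48 h compound exposure, 37 °C; detection: Alamar Blue fluorescence; measure: percent inhibition of biofilm viability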
Numbers without * were called inactive; & = joins results of further samples. An excerpt. The share of hits here may be higher or lower than overall.

SMILES	Biofilm kill mix
Cc1ccc(C)c(NC(=O)CSc2ccc(-c3cccs3)nn2)c1	15
CC(=O)CCn1cc([N+](=O)[O-])nc1C	13
O=C(NCc1ccncc1)C(=O)C1C(=O)Nc2ccccc21 (stereo not given)	1
O=C(COc1cc(F)ccc1[N+](=O)[O-])NCCCc1ccccc1	16
CC(NC1CCCC1)c1ccccc1 (stereo not given)	21
O=C(N/N=C/c1ccc(O)cc1O)/C(=C/c1ccccc1)CCO	26
Cc1nc(NC(=O)C23CC4CC(CC(C4)C2)C3)sc1Cc1ccc2c(c1)OCO2	14
COc1ccc(/C=C/C(=O)NC(=S)NNC(=O)c2cccnc2)cc1	0
Oc1cccc(Oc2ncc(C(F)(F)F)cc2Cl)c1	18
COc1ccccc1C(=O)NNC(=O)c1ccncc1	1
Cc1cc(C)cc(-n2c(C)c3c(C)nnc(C)c3c2C)c1	17
C=C1c2cc(C)ccc2NC(=O)N1c1ccccc1	8
Cc1cccc(NCC(=O)N/N=C\c2c[nH]c3ccccc23)c1	7
COc1ccc(S(=O)(=O)Oc2cccc(/C=N/N=C3/NC(=O)C(CC(=O)O)S3)c2)cc1 (stereo not given)	5
COC(=O)NNS(=O)(=O)c1ccc(C)cc1	13
O=C(c1ccc([N+](=O)[O-])cc1)N1CCSC1c1cccc(Cl)c1 (stereo not given)	5
COc1ccc(Cl)cc1NC(=S)Nc1ccc(Cl)cn1	6
O=C(CC1C(=O)NCCN1Cc1ccc(-c2ccccc2)cc1)NCCCn1cccn1 (stereo not given)	24
COc1ccccc1N1CCN(CC(=O)N2N=CCC2c2ccccc2)CC1 (stereo not given)	6
Oc1ccc(/C=N/NC(=S)Nc2cccnc2)cc1O	9
CCOC(=O)C1CCCN(C2CC(=O)N(c3ccccc3)C2=O)C1 (stereo not given)	6
O=C(CSc1ncnc2[nH]ncc12)Nc1nc(-c2ccc(F)c(F)c2)cs1	18
C/C(Cc1ccccc1)=N/NC(=O)CNC(=O)C(c1ccccc1)c1ccccc1	4
CC(=O)c1cccc(NC(=O)COC(=O)C2=COCCO2)c1	3
O=C(O)CSc1nc2c(c(C(F)(F)F)n1)CCCC2	4&3
COc1ccc(-c2nnc(N(C)C(=O)C3CCCO3)s2)cc1 (stereo not given)	15
COc1ccc(C(CC(=O)O)NC(=O)c2cc3cc(Br)ccc3oc2=O)cc1OC (stereo not given)	8
COCC(C)n1c(SCC(=O)N(C)C2CCS(=O)(=O)C2)nc2ccccc2c1=O (stereo not given)	30
COc1cccc(CN(C)CC(=O)NC(=O)NCc2ccccc2)c1	16
CCNc1nc(NCC)n2c(SCC(=O)c3ccccc3Cl)nnc2n1	8
Nc1ccc(S(=O)(=O)N2CCCC2C(=O)O)cc1 (stereo not given)	20
Fc1cccc(Cl)c1-c1nnc2ccc(C(F)(F)F)cn12	21
Cc1cc(N/N=C/c2ccccc2)nc(NCc2ccccc2)n1	6
Cc1ccc(NC(=O)Cc2nc(CCl)cs2)cc1	15
CSc1ncc(C(C)=O)c(C)n1	8
Cc1cc(C)c2nc(SC3CCOC3=O)cc(C)c2c1 (stereo not given)	24
O=C(NCc1ccco1)/C(=C\c1ccco1)NC(=O)c1ccco1	3
CC(=O)c1sc(NC(=O)c2ccc(F)cc2)nc1-c1ccccc1	10
CC(C)n1nc(C(=O)Nc2nc3ccc(S(C)(=O)=O)cc3s2)c2ccccc2c1=O	13
Cc1ccc(-c2nn(CCC(=O)NN3CCOCC3)c(=O)c3ccccc23)cc1	15
Cc1ccc(N2CCN(c3cc(C)nc4nc(C)nn34)CC2)c(C)c1	3
Cc1ccc(-c2cc(C(=O)Nc3c(C)n(C)n(-c4ccccc4)c3=O)[nH]n2)c(O)c1C	28
COc1ccccc1C(=O)C1CCCN(C(=O)c2ccc3c(c2)OCCO3)C1 (stereo not given)	14
CSc1ccc(CNc2nnnn2C)cc1	13
Cc1ccc[n+](C2C(c3ccc([N+](=O)[O-])cc3)C(C#N)=C([S-])NC2(O)C2CC2)c1 (stereo not given)	15
COc1ccc(-c2nnc(SCC(=O)NCC3CCCO3)n2C)cc1 (stereo not given)	9
Cc1ccc(Oc2c(C(N)=O)cc([N+](=O)[O-])cc2[N+](=O)[O-])cc1	6
COc1ccc(N(CCCN2C(=O)c3cccc4cccc(c34)C2=O)C(=O)c2cccc(OC)c2)cc1	19
Cc1ccc(C)c(N2CCN(C(=S)Nc3ccc4nc(N5CCOCC5)cc(C)c4c3)CC2)c1	17
COc1ccc(-c2ccc3ccccc3n2)cc1	10
COc1ccc(N)cc1-n1c(C)ccc1C	19
CCNc1nc(NCC)nc(C(=O)NN)n1	13
O=C1C2C3C=CC(C3)C2C(=O)N1/N=C/c1ccc(-c2ccccc2[N+](=O)[O-])o1 (stereo not given)	3
COc1ccccc1NC(=O)NC1(C(=O)N2CCCCCC2)CCCCC1	14
CC(C)C(NS(=O)(=O)c1ccc2c(c1)OCCCO2)C(=O)O (stereo not given)	17
CCc1nn2cc(C(=O)c3cc(C)ccc3O)cnc2c1-c1ccc(F)cc1	6
CC(C)C[C@@H](CSc1ccc(Br)cc1)N1CCN(CC(C)C)CCC1=O	18
O=C(c1cc(=O)[nH]c2ccccc12)N1CCc2ccccc2C1	6
CCCCOc1ccc(-c2cnc3ccccc3n2)cc1	14
CN(C)c1ccnc2sc(C(=O)c3ccccc3)c(N)c12	13

(more compounds)
SMILES	Biofilm kill mix
COc1ccc2nc(NC3=NC(C(=O)Nc4ccc(C)cc4)CC(=O)N3)nc(C)c2c1 (stereo not given)	14
CC(C)c1cc(NCc2ccccn2)n2c(nc3ccccc32)c1C#N	-5
Cc1ccc([N+](=O)[O-])cc1-c1ccc(/C=N/NC(=O)CN2CCOCC2)o1	13
CC(C)CNC(=S)NNC(=O)CC(C)O (stereo not given)	6
CC(C)=C1C2CCC1C1C(=O)N(c3ccc4c(c3)OCO4)C(=O)C21 (stereo not given)	19
Cc1ccc(CNC(=O)CCC2CCCN(Cc3ccc4cccc(F)c4n3)C2)o1 (stereo not given)	32
Cc1cc(C)cc(NC(=O)/C(C#N)=C/c2cn(CC(=O)NCc3ccco3)c3ccccc23)c1	12
O=C(CSc1nnc(Cc2ccccc2)n1Cc1ccccc1)NCc1ccco1	19
COc1ccc(S(=O)(=O)Nc2ccc(O)c3ccccc23)cc1	16
CCN(CC(=O)NCc1ccc(F)cc1)c1ccc(S(C)(=O)=O)cc1[N+](=O)[O-]	4
CC1(C)S[C@@H]2[C@H](NC(=O)[C@H](N)c3ccccc3)C(=O)N2[C@H]1C(=O)O	8&5
CC(O)c1ccc(-n2cnnn2)cc1 (stereo not given)	12
COc1ccc(-c2nc(SC(CC(=O)NCCN3CCOCC3)c3cccs3)n[nH]2)cc1 (stereo not given)	34
CCOC(=O)c1cc2c(=O)n3ccccc3nc2n(Cc2ccco2)c1=NC(=O)c1ccccc1OCC	16
CCOc1ccc(OCC(=O)Nc2ccc(OC)cc2[N+](=O)[O-])cc1	-3
Cc1ccccc1NC(=O)COC(=O)c1cccnc1	8
CCOc1cccc2sc(N(CCN(C)C)C(=O)c3ccc(Br)s3)nc12	9
CC(C)CCN(C(=S)Nc1cccc(C(F)(F)F)c1)C(C)c1ccccn1 (stereo not given)	20
O=c1[nH]sc2ccccc12	1
Cc1cc(C)n(Cc2ccc(Cl)nc2)n1	14
CCOC(=O)c1ccc(S(=O)(=O)NCC(c2ccc(N(C)C)cc2)c2c[nH]c3ccccc23)cc1 (stereo not given)	25
COc1ccc(O)c(CN2CCN(CCc3ccccc3)C(CCO)C2)c1 (stereo not given)	8
COc1cc(/C=C/C(=O)OCC(=O)NCCc2ccccc2)cc(OC)c1OC	15
CCOc1ccc(NC(=S)Nc2cccnc2)cc1	-6
O=C(CNC(=S)N(Cc1ccccc1)Cc1cccnc1)NCCN1CCOCC1	15
COC(=O)c1sccc1NC(=S)N1CCN(C)CC1	5
Clc1ccc(OCc2nnc3n2CCCCC3)c(Cl)c1	11
CCn1c(SCC(=O)Nc2sc3c(c2C#N)CCCC3)nnc1-c1ccncc1	20
CCCCCCNC(=O)C(=O)NCCc1ccc(Cl)cc1	24
CNC(=S)N/N=C/c1cc(Br)cc(Br)c1O	18

Fetched by compound from the entries so far (7):
SMILES	Biofilm kill mix
COC(=O)NNS(=O)(=O)c1ccc(C)cc1	13
COc1ccc(/C=C/C(=O)NC(=S)NNC(=O)c2cccnc2)cc1	0
COc1ccc(C(CC(=O)O)NC(=O)c2cc3cc(Br)ccc3oc2=O)cc1OC (stereo not given)	8
O=C(O)CSc1nc2c(c(C(F)(F)F)n1)CCCC2	4&3
Fc1cccc(Cl)c1-c1nnc2ccc(C(F)(F)F)cn12	21
CCc1nn2cc(C(=O)c3cc(C)ccc3O)cnc2c1-c1ccc(F)cc1	6
O=C(NCc1ccncc1)C(=O)C1C(=O)Nc2ccccc21 (stereo not given)	1

Among those listed so far, 9 have two or more sulfur atoms:
SMILES	Biofilm kill mix
Cc1ccc(C)c(NC(=O)CSc2ccc(-c3cccs3)nn2)c1	15
COc1ccc(S(=O)(=O)Oc2cccc(/C=N/N=C3/NC(=O)C(CC(=O)O)S3)c2)cc1 (stereo not given)	5
O=C(CSc1ncnc2[nH]ncc12)Nc1nc(-c2ccc(F)c(F)c2)cs1	18
COCC(C)n1c(SCC(=O)N(C)C2CCS(=O)(=O)C2)nc2ccccc2c1=O (stereo not given)	30
CC(C)n1nc(C(=O)Nc2nc3ccc(S(C)(=O)=O)cc3s2)c2ccccc2c1=O	13
COc1ccc(-c2nc(SC(CC(=O)NCCN3CCOCC3)c3cccs3)n[nH]2)cc1 (stereo not given)	34
CCOc1cccc2sc(N(CCN(C)C)C(=O)c3ccc(Br)s3)nc12	9
COC(=O)c1sccc1NC(=S)N1CCN(C)CC1	5
CCn1c(SCC(=O)Nc2sc3c(c2C#N)CCCC3)nnc1-c1ccncc1	20

Following part:
SMILES	Biofilm kill mix
COc1ccc(S(=O)(=O)N(n2c(C)nnc2-n2nc(C)cc2C)S(=O)(=O)c2ccc(OC)cc2)cc1	11
Fc1cccc(Cc2noc(CN3CCSCC3)n2)c1	15
COc1cccc(Oc2c(C)oc3c(CN4CCCCC4)c(O)ccc3c2=O)c1	8
O=C(Cc1ncc(C(F)(F)F)cc1Cl)NCCc1ccccn1	7
COCCNC(=O)C1CCN(C(=O)c2cc3sccc3n2Cc2ccc(F)cc2)CC1	13
O=[N+]([O-])c1ccc(-n2nnnc2CN2CCCCC2)cc1	14
CC(C)(CO)NCc1ccc(Br)cc1	16
COc1ccc(/C=C/C(=O)CCC(=O)O)cc1	18
CCCCSC(=S)NC1CCS(=O)(=O)C1 (stereo not given)	10
Cc1ccc(C)[n+](CC(=O)N2CCCCC2)c1	12
Cn1c(=O)c2c(nc(Sc3ncnn3CC(=O)NC3CCCCC3)n2C)n(C)c1=O	16
CCOc1ccc(C(CC(=O)O)NC(=O)c2ccco2)cc1 (stereo not given)	6
C/C(=N\NC(=O)C1(C)NC(C)(C)Cc2ccccc21)c1ccccc1 (stereo not given)	32
CC(=O)c1ccc(NC(=O)C2CC(=O)Nc3nc4ccccc4n32)cc1 (stereo not given)	18
COC(=O)c1ccc(-n2c(C)cc(C(=O)COC(=O)CC3Sc4ccccc4NC3=O)c2C)cc1 (stereo not given)	29
O=C1c2ccccc2C(=O)c2[nH]cnc21	18
C=CCc1cccc(CNc2c(C)cc(C)cc2C)c1O	5
C/C(=N\N1CCN(Cc2ccc(Cl)cc2)CC1)c1ccc([N+](=O)[O-])cc1	28
O=C(CNS(=O)(=O)c1ccccc1)Nc1ccc2c(c1)OCO2	8
CCOc1ccc(C(=O)OCC(=O)Nc2ccc(SC(F)F)cc2)cc1OCC	11
COc1ccc(C2OC(=O)CC2C(=O)NCc2ccc(C)cc2)cc1OC (stereo not given)	7
COc1ccc(OCC(=O)Nc2ccc3c(c2)nc(CN2CCN(C(C)=O)CC2)n3C)cc1	31
Cc1cccc(OCc2nnc(SCC(=O)N3CCN(c4ccccc4)CC3)o2)c1C	14
CCOc1ccc(NC(=S)NN(C)C(=S)Nc2ccc(OCC)cc2)cc1	12
CCOC(=O)C1(CC2CCCCO2)CCN(S(=O)(=O)c2ccc(OC)cc2)CC1 (stereo not given)	6
CCCC[C@@H]1C[C@H]1[C@@H](NC(=O)c1ccccc1)c1ccccc1C(F)(F)F	11
Cc1noc(C)c1C(=O)Nc1nc(-c2ccccc2Cl)cs1	16
CCOC(=O)CNC(=O)C1CCCc2c1[nH]c1ccc(Cl)cc21 (stereo not given)	22
Cc1cc(-c2nnc(CCC(=O)NC(C)c3cccc4ccccc34)o2)no1 (stereo not given)	6
COc1ccc(CCC(=O)O)cc1OC	27
Cc1cc(C)n(-c2nc(NCCN(C)C)c3c4c(sc3n2)COC(C)(C)C4)n1	15
Cc1ccc(NC(=O)/C=C/c2ccco2)nc1	18
CCCn1c(SC(C(=O)Nc2cc(C)ccc2OC)c2ccccc2)nc2ccccc2c1=O (stereo not given)	2
CCOc1ccc(Br)cc1S(=O)(=O)Nc1cccc(S(=O)(=O)N(CC)CC)c1	4
Clc1ccc(C2=NOC(c3nnc(-c4ccccc4)o3)C2)cc1 (stereo not given)	14
C[C@@H]1O[C@@H](Oc2c(-c3cc(O)c(O)c(O)c3)oc3cc(O)cc(O)c3c2=O)[C@H](O)[C@H](O)[C@H]1O	6
Cc1ccc2cc(-c3noc(C4CCCCC4)n3)c(=O)[nH]c2c1	16
CN(C(=O)COC(=O)c1cccnc1Nc1ccccc1F)C1CCS(=O)(=O)C1 (stereo not given)	15
CN(Cc1ccccc1)C(=O)COc1ccc(-c2nnco2)cc1	11
Cc1ccc(S(=O)(=O)c2c(N)n(-c3ccccc3)c3nc4ccccc4nc23)cc1	2
COc1ccc(OC)c(N/C(C)=C/C(=O)c2ccc(Br)cc2)c1	1
O=C(N/N=C/c1ccccc1Cl)c1nc2ccc([N+](=O)[O-])cc2c(=O)[nH]1	10
